Compound activity from PubChem BioAssay.
Biofilm kill mix – mixtures killing C. albicans biofilm; C. albicans biofilm persisters + clotrimazole, fluorescence viability; primary screen in compound mixtures of four per well; inhibition, % at 7.6 µM; hit rate 0.02% among 120,000; AID 1242;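 active means inhibition above 30.3% in the primary screen of four-compound pools, then above 30% when the compound was retested; inconclusive means passed the primary limit but could not be retested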;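 further: compounds exposed to preformed 24 h biofilms for 48 h; the number belongs to the whole pool; some results filed as inactive read as strong as hits; inactives centre near 12; 0% = biofilm with clotrimazole alone and 100% = kill control; retested singly at about 60 µM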
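Incubation: 24 h biofilm formation, then 48 h compound exposure, 37 °C | Material: C. albicans biofilms | Buffer or medium: RPMI/MOPS medium, pH 7.0 | Measured by: 2-h Alamar Blue fluorescence, 535/590 nm excitation/emission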
* hit, by the source's call; ? = inconclusive.

Molecule | Biofilm kill mix
Cc1c(N=C2SCC(=O)N2/N=C\c2ccc(Br)cc2)c(=O)n(-c2ccccc2)n1C | 6
O=C(O)CCCn1cc(NC(=O)c2c(F)cccc2F)cn1 | 8
CC(=O)Nc1ccc(C(=O)OCC(=O)Nc2ccccc2Sc2ccccc2)cc1 | 11
CCS(=O)(=O)Nc1cccc(-c2nc3cccnc3s2)c1 | 19
C/C(=N/Nc1nc(-c2ccccc2)cc(-c2ccccc2)n1)c1ccc(N)cc1 | 13
C=CCN(CC=C)C(=S)NC(=O)/C=C/c1ccc(OC)cc1 | 8
Cc1ccc(NC(=O)c2cccs2)cc1S(=O)(=O)N(C)C | 12
O=[N+]([O-])c1ccc(COc2ccc(-c3[nH]ncc3-c3ccccc3)c(O)c2)cc1 | 12
CC12CNCC(C)(CN(C(c3ccccc3)c3ccccc3)C1)C2 | 8
O=C(COS(=O)c1ccccc1)Nc1cc(Cl)ccc1N1CCOCC1 (stereo not given) | 12
C/C=C/C=C\C(=O)Nc1cccc(C2=NOC3(C2)C[C@@H](C(N)=O)N(C(=O)c2cc([N+](=O)[O-])cc([N+](=O)[O-])c2)C3)c1 (stereo not given in full) | 12
COCCNC(=O)COC(=O)c1cccnc1SC | 13
CC(C1CC2CCC1C2)N1CC(O)=C(c2nc3ccccc3[nH]2)C1=N (stereo not given) | 5
COc1ccc(C(=O)NC(=S)NCCc2ccccc2)cc1 | 0
CCN(C(=O)CN1CCOCC1)c1c(N)n(Cc2ccccc2)c(=O)[nH]c1=O | 3
COc1ccc(-c2nnc(SCc3nnc(-c4cccs4)o3)n2CC2CCCO2)cc1 (stereo not given) | 18
Cc1cccc(OCC(=O)Nc2ccc(S(=O)(=O)N3CCN(C)CC3)cc2)c1 | 10
COC(=O)N/N=C\c1ccc(OC(=O)c2ccco2)cc1 | 11
CC1CC(Nc2ccccc2)c2ccccc2N1C(=O)c1ccncc1 (stereo not given) | 18
CCCn1c(C)cs/c1=N\C(=S)Nc1ccccc1 | 12
N#C/C(=C/c1ccc(-c2ccc(S(N)(=O)=O)cc2)o1)C(=O)Nc1ccccc1 | 18
Cc1ccc(NC(=O)c2c(F)cccc2Cl)cc1NS(C)(=O)=O | 2
Cn1c(=O)c2[nH]c(N3CCCCC3)nc2n(C)c1=O | -1
O=C(O/N=C1/CCCc2occc21)c1ccc(Cl)cc1Cl | 26
Cc1ccc(C(=O)Nc2ccc(N3CCCC3)cc2)cc1 | 11
CC(C)(C)NC(=O)NC(=O)CN1CCN(S(=O)(=O)c2ccc3c(c2)OCCO3)CC1 | 14
O=C(NCC1CCCO1)c1cc([N+](=O)[O-])ccc1Cl (stereo not given) | 7
O=C(/C(Br)=C/Nc1cc(Cl)ccc1Cl)C(F)(F)F | 8
CCc1cc(C(=O)N2CCCC(CNS(=O)(=O)c3cccs3)C2)n(C)n1 (stereo not given) | -8
CC(C)OP(=O)(OC(C)C)C(Nc1ccccc1)c1cccc([N+](=O)[O-])c1 (stereo not given) | 30

Copied from the list.
`Cn1c(=O)c2[nH]c(N3CCCCC3)nc2n(C)c1=O` in Biofilm kill mix is listed with -1
`O=C(NCC1CCCO1)c1cc([N+](=O)[O-])ccc1Cl` (stereo not given) in Biofilm kill mix is listed with 7

New compounds follow
Molecule | Biofilm kill mix
COc1ccc(C(=O)CN2C3=NCCCN3c3ccccc32)cc1OC | 10
COC1(OC)C(/C=C/c2ccc(Cl)cc2)C(C#N)(C#N)C1(OC)OC (stereo not given) | 11
CC(C(=O)N1CCOCCOCCOCC1)N1C(=O)c2ccccc2C1=O (stereo not given) | 20
CC(C)c1ccc(/C=C/C(=O)N2CCCCCC2)cc1 | 15
Cc1ccc(NC(=S)NCc2ccc3c(c2)OCO3)cc1C | 5
C=CCOc1c(Br)cc(C2C3=C(CCCC3=O)N(C)C3=C2C(=O)CCC3)cc1OCC | 10
CCc1nnc(NC(=O)CSc2ccc(-c3ccc(C)cc3)nn2)s1 | -6
C=CCCCCCCCCC(=O)Nc1ncccn1 | 7
COc1ccc(NC(=O)Cn2ccc3c(OC)cccc3c2=O)cc1 | 11
CCN(CC)C(=O)C(=O)c1cn(CC(=O)NCc2ccc3c(c2)OCO3)c2ccccc12 | 4
COc1ccc(CN(CC2CCCO2)S(=O)(=O)c2ccc(-n3cnnn3)c(OC)c2)cc1 (stereo not given) | 22
COC(=O)[C@@H]1CCCN1Cc1nc(Cc2ccccc2F)no1 | 6
O=C(Nc1nc2ccccc2[nH]1)c1ccccc1[N+](=O)[O-] | 12
CCOC(=O)N1CCN(C(=O)COC(=O)c2ccc(O)cc2O)CC1 | 20
Cc1ccc(C(=O)NCc2cccnc2)cc1S(=O)(=O)Nc1ccccc1 | 15
CCOC(=O)N1CCC(NC(=O)c2cc3c(=O)[nH]c4ccccc4c3n2C)CC1 | 12
O=C(NNC(=O)c1cc(-c2ccccc2)nn1-c1ccccc1)c1ccccc1 | 11
COCc1cc(N2CCN(c3ccccc3F)CC2)nc(-c2ccccc2)n1 | 7
CCC(C)N(C)C1CCN(C(=S)Nc2cccc(OC)c2)CC1 (stereo not given) | 12
CC(=O)OC1COC(n2ccc3cc([N+](=O)[O-])ccc32)C(OC(C)=O)C1OC(C)=O (stereo not given) | 20
COC(=O)c1ccc(CSc2nc3c(c(=O)n2-c2ccc(F)cc2)SCC3)o1 | 3
NS(=O)(=O)c1ccc(CCNC(=O)Cc2c[nH]c3ccccc23)cc1 | 15
Cc1nc([N+](=O)[O-])c(Sc2nc3ccc([N+](=O)[O-])cc3[nH]2)n1Cc1ccccc1 | 14
COc1ccc2nc(N/C(N)=N/S(C)(=O)=O)nc(C)c2c1 | 22
Cc1cccc(-n2cnc3cc([N+](=O)[O-])ccc32)c1 | 14
COc1cccc(CNc2nc3nc(C)c(Cl)c(=O)n3[nH]2)c1 | 20
COc1ccc(/C=C/C(=O)Oc2cccc(/C=N/NC(=O)Cc3ccc(Br)cc3)c2)cc1 | 17
Cc1cccc(/N=C/c2c(O)ccc3oc4c(c23)CCCC4)n1 | 8
NCC(=O)NCC(=O)OCc1ccccc1 | 19
COc1cccc(/C=N/Nc2nnc(C)n2N)c1OCc1ccccc1Cl | 11

An excerpt from above in order of length of the SMILES, largest number first.
Molecule | Biofilm kill mix
Cc1c(N=C2SCC(=O)N2/N=C\c2ccc(Br)cc2)c(=O)n(-c2ccccc2)n1C | 6
CC(C1CC2CCC1C2)N1CC(O)=C(c2nc3ccccc3[nH]2)C1=N (stereo not given) | 5
CCS(=O)(=O)Nc1cccc(-c2nc3cccnc3s2)c1 | 19

(list continues)
Molecule | Biofilm kill mix
COc1ccc(-n2c(C)cc(-c3cn4cccc(C)c4n3)c2C)cc1 | 8
O=[N+]([O-])c1ccc(Cl)cc1N1CCCCC1 | 6
Cn1c(CNc2cccc(C(F)(F)F)c2)n[nH]c1=S | 8
S=C(NCCc1ccncc1)Nc1ccccc1 | 7
O=C(CCC(=O)NNC(=O)c1ccc([N+](=O)[O-])cc1)NCc1ccccc1 | -8
O=C(NC(=S)NCCN1CCOCC1)c1ccccc1Br | 6
c1ccc(-c2cccs2)nc1 | 18
O=C(CSc1nnnn1-c1ccccc1)NCc1ccco1 | 9
COC(=O)COc1ccc(C2Nc3c(Cl)ccc(C(=O)O)c3C3C=CCC32)cc1 (stereo not given) | 12
Cc1cc(=O)[nH]c2c1c(-c1ccccc1)nn2C | 12
Cc1ccc(-c2c[n+](=O)c3c(n2[O-])CCC3)cc1 | 12
OCCC1CN(Cc2cccn2-c2ncccn2)CCN1CCc1ccccc1 (stereo not given) | 13
Cc1csc(NC(=O)c2ccc(-c3ccc(Cl)cc3Cl)o2)n1 | -15
N#Cc1c(N)n(-c2cccc(O)c2)c2nc3ccccc3nc12 | 4
CC(NC(=O)COc1ccc(N(C)S(=O)(=O)c2ccccc2)cc1)c1ccccc1 (stereo not given) | 9
COc1ccc(N2CCN(CC(=O)NC(=O)NC(C)(C)C)CC2)cc1 | 7
C=CCn1c(O)c(/C=C2\C=NN=C2c2ccccc2)sc1=S | 20
Cc1ccc(NC(=O)COC(=O)C2=COCCO2)c([N+](=O)[O-])c1 | 11
CCCOc1ccc(/C=C/C(=O)O)cc1OC | 8
COc1ccc(/C=C/C(=O)Nc2nc(C)c(C(=O)N(C)C)s2)cc1 | 10
Cc1ccc(S(=O)(=O)NCc2c(-c3ccccc3)noc2C)cc1 | 19
CC(C)CCOC(=O)C[N+](C)(C)CCOC1CC2CCC1(C)C2(C)C (stereo not given) | 15
Cc1cc(/C=N/Nc2ccc([N+](=O)[O-])cn2)c(C)n1-c1cccc(C(=O)O)c1 | 20
O=C(NCCc1ccccc1)c1c(F)cccc1F | 21
O=C(N/N=C/c1c(O)n(-c2ccc(Cl)cn2)c(=O)c2ccccc12)C1CC1 | 16
COc1ccc(Cc2nc3ccccc3n2CC(=O)N/N=C/c2ccc(C)cc2O)cc1OC | 19
CCOc1ccc(N(CC(=O)Nc2cc(C)ccc2C)S(=O)(=O)c2c(C)[nH]c(=O)[nH]c2=O)cc1 | 11
O=C(Cc1cccs1)N/N=C/c1ccccc1 | 30
Cc1ccc(C(=O)NCCN2C3=NC[C@H](C)N3C[C@H]2Cc2ccc(O)cc2)cc1Br | 19
O=C(NCC(c1ccco1)N1CCCCC1)c1ccc2c(c1)S(=O)(=O)c1ccccc1C2=O (stereo not given) | 6
CCCSc1ccc(C(=O)Nc2ccc(Cl)cc2)cn1 | -2
CCN(CC)S(=O)(=O)c1ccc(OC)c(NC(=O)Cn2cnc3c2c(=O)n(C)c(=O)n3C)c1 | -3
COc1ccc(/C=C/C(=O)NCC(=O)n2nc(C)cc2C)cc1 | 19
NC(=O)c1nsc(C(=O)N(c2ccccc2)C(C(=O)NCC2CCCO2)c2cccs2)c1N (stereo not given) | 7
O=C(NCC(c1ccco1)N1CCOCC1)c1ccc([N+](=O)[O-])cc1 (stereo not given) | 6
CC(=O)C1=C(C)N(CC2CC2)C(=O)N[C@H]1c1ccccc1 | 20
O=C(OCCN=C1NS(=O)(=O)c2ccccc21)c1ccco1 | 19
Cc1ccccc1CN(c1ccc(C(=O)NCc2cccnc2)cc1)S(C)(=O)=O | 12
O=C(NC(c1ccccc1)c1ccccc1)c1ccc(=O)[nH]n1 | 5
O=c1ccc2cc3c4c(c2o1)CCCN4CCC3 | 21
NC(=O)c1cc2nc(-c3ccco3)cc(C(F)(F)F)n2n1 | 10
COc1ccc(NC(=S)NC(=O)CC(C)C)c(OC)c1 | 17
CCCCN(CCCC)CC(O)CN(c1cc([N+](=O)[O-])ccc1OC)S(=O)(=O)c1ccccc1 (stereo not given) | 11
COc1cc(NS(=O)(=O)c2ccc(NC(=O)c3ccc(S(=O)(=O)N4CCCC4)cc3)cc2)ncn1 | 26
CN(C)S(=O)(=O)c1ccc(NC(=O)CCNC(=O)c2ccc([N+](=O)[O-])cc2)cc1 | 20
COc1ccc(N2C(=O)CC(SCc3ccc(Cl)cc3)C2=O)cc1 (stereo not given) | 9
COc1ccc(C(=O)COC(=O)CNC(=O)c2cc(OC)cc(OC)c2)cc1 | 14
N#CC1CC(c2ccccc2)Nc2cc(Cl)ccc2N1 (stereo not given) | 16
O=C(/C=C/c1ccc(N2CCCCC2)c([N+](=O)[O-])c1)c1ccc(S(=O)(=O)N2CCCC2)cc1 | 21
Nc1ccc(C(=O)Nc2ccc3nc(-c4ccncc4)[nH]c3c2)cc1 | 8
O=C(OC(C(=O)Nc1cccc(C(F)(F)F)c1)c1ccccc1)C1CCCCC1 (stereo not given) | 9
Cc1ccc(OCc2nc3ccccc3[nH]2)cc1 | 9
CCN(CC)C(=O)CSc1nc2c(c(-c3cccnc3)c1C#N)CCCC2 | 16
CNC1(c2nnnn2-c2c(C)cccc2C)CCOC(C)(C)C1 (stereo not given) | 18
Cc1cc(C)cc(N2C(=O)C3NN=C(C(=O)OCc4ccccc4)C3C2=O)c1 (stereo not given) | -14
Cc1cc(F)ccc1S(=O)(=O)Nc1ccccc1C(=O)Nc1ccccc1-c1nc2ccccc2[nH]1 | 20
Cc1[nH]c(=O)nc2c1CCC2 | 5
COc1ccc(NC(=O)NCc2ccco2)c(OC)c1 | 11
O=c1c2cc(N3CCOCC3)ccc2[nH]c(=S)n1CCc1ccccc1 | 8
CS(=O)(=O)N1CCN(C(=O)COc2ccc3ccccc3c2)CC1 | 15

(continued)
Molecule | Biofilm kill mix
CCOc1cc(CNCCc2ccccc2)ccc1OCC(=O)NC(C)(C)C | 11
COc1ccccc1C(=O)Nc1nsc(-c2ccccc2)n1 | 25
CCNC(=O)NC(=O)C(C)Oc1ccc(Br)cc1Br (stereo not given) | -1
O=c1[nH]c(=O)c2cc([N+](=O)[O-])cc([N+](=O)[O-])c2[nH]1 | ?
CCn1nnnc1NC(=O)c1cc(Cl)c(OC)c(Cl)c1 | 23
O=C(Cc1ccccc1[N+](=O)[O-])NCc1ccc2c(c1)OCO2 | 17
CC[n+]1c(/C=C(\C)OC)sc2ccccc21 | 42
COc1ccccc1NC(=O)NCc1ccco1 | -2
CC1=C(C(=O)Nc2ccc(C)cc2)C(c2ccco2)NC(=O)N1 (stereo not given) | 5
Cc1ccc(CNC(=O)COC(=O)C2CCN(S(=O)(=O)c3cccs3)CC2)cc1 | 6
COc1cc(NC(=O)CSc2nnc3c(C)cc4c(C)ccc(C)c4n23)c(C(=O)O)cc1OC | 36
O=C(/C(C=Nc1cccc(C(F)(F)F)c1)=C(/O)c1ccco1)C(F)(F)F | 7
CCN1CCN(C(=O)c2ccc(CN(c3ccccc3)S(=O)(=O)c3ccccc3)cc2)CC1 | 13

Fetched by compound from above (five):
Molecule | Biofilm kill mix
Cc1ccc(C(=O)Nc2ccc(N3CCCC3)cc2)cc1 | 11
COc1ccccc1NC(=O)NCc1ccco1 | -2
CC(C)CCOC(=O)C[N+](C)(C)CCOC1CC2CCC1(C)C2(C)C (stereo not given) | 15
COc1ccc(C(=O)COC(=O)CNC(=O)c2cc(OC)cc(OC)c2)cc1 | 14
O=C(Cc1ccccc1[N+](=O)[O-])NCc1ccc2c(c1)OCO2 | 17

Not all compounds are listed. The share of hits here may be higher or lower than overall.
